# Source: PubChem BioAssay (PCMD)
# Biofilm kill mix: mixture kills Candida albicans biofilm cells | 0.02% of 120,000 active | C. albicans biofilm persisters + clotrimazole, fluorescence viability; primary screen in compound mixtures of four per well | AID 1242 | inhibition, % at 7.6 µM;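 active means inhibition above 30.3% in the primary screen of four-compound pools, then above 30% when the compound was retested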;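 further: compounds exposed to preformed 24 h biofilms for 48 h; the number belongs to the whole pool; some results filed as inactive read as strong as hits; inactives centre near 12; 0% = biofilm with clotrimazole alone and 100% = kill control; retested singly at about 60 µM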
#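 Probe or stimulus – Clotrimazole 50 µg/mL co-treatment · System – C. albicans biofilms · Schedule – 24 h biofilm formation, then 48 h compound exposure, 37 °C · Evaluation – percent inhibition of biofilm viability · Technique – 2-h Alamar Blue fluorescence, 535/590 nm excitation/emission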
# * hit, by the source's call.
SMILES,Biofilm kill mix
Cc1ccc(-c2c[n+](CC(=O)Nc3ccccc3)c3n2CCC3)cc1,13
CC(=O)c1cccc(NC(=O)CCNS(=O)(=O)c2cccc3nonc23)c1,21
CSc1ccc(/C=C(\NC(=O)c2ccc(C)cc2)C(=O)Nc2cccc(C)c2)cc1,21
COc1ccc(-c2noc(C3CCCN(C(=O)c4ccccc4)C3)n2)cc1 (stereo unspecified),8
O=C(C1CCC(Cn2c(=O)[nH]c3ccccc3c2=O)CC1)N1CCN(c2ccccc2)CC1 (stereo unspecified),4
Cc1ccc(N(Cc2ccc(C(=O)NCC3CCCO3)cc2)S(C)(=O)=O)cc1C (stereo unspecified),19
Cc1cccc(NC(=O)CSc2nnc(Cn3cnc4ccccc43)o2)c1,-4
Cc1nn(-c2ccccc2)nc1CNC(=O)C1CC1,13
COc1ccccc1NC(=O)CN1C(=O)NC2(CCCCCCC2)C1=O,11
CCn1c(CNC(=O)c2cccs2)nnc1SCC(=O)Nc1ccc(Cl)cc1,15
CCCN1C(=O)c2cc(C(=O)Nc3ccccc3C)ccc2C1Nc1ccccc1C (stereo unspecified),11
O=C(COC(=O)Cn1cnc2ccccc21)NCCCc1ccccc1,10
Cc1cc(Nc2ccc(Br)cc2F)n2ncnc2n1,7
COc1cc2c(cc1/C=C1/NC(=O)N(c3ccccc3)C1=O)OCO2,21
CN(C)CCCN(C(=O)c1ccc2c(c1)CCCC2)c1nc2ccc(F)cc2s1,17
CCOc1ccc(NC(=O)COC(=O)c2ccc3c(c2)C(=O)N(CCc2ccccc2)C3=O)cc1,11
O=C(Nc1ccc(F)cc1F)c1csc(-c2cccs2)n1,18
NC(=O)c1c(NC(=O)CCCC(=O)O)sc2c1CCCCCC2,20
Cc1ccc(C(=O)O/N=C(\c2ccccc2)c2cccnc2)cc1,11
O=C(Nc1c(C(=O)O)[nH]c2ccc(F)cc12)c1cccc(C(F)(F)F)c1,26
CCN(CC)S(=O)(=O)c1ccc(N/N=C/c2cc(OC)ccc2O)nc1,12
Fc1ccc(-c2nnn3c2nc(NCc2ccccc2)c2ccccc23)cc1,21
CCc1nnc(NC(=O)c2cccc(C(=O)Nc3nnc(CC)s3)n2)s1,16
CC(=O)NC1C(Oc2ccc(C=O)cc2)OC(COC(C)=O)C(OC(C)=O)C1OC(C)=O (stereo unspecified),23
COc1ccc(C2Nc3ccccc3C(=O)N2Cc2ccccc2)cc1CN1CCOCC1 (stereo unspecified),22
# Additional entries follow:
SMILES,Biofilm kill mix
COc1ccc(S(=O)(=O)N(CC(=O)N2CCOCC2)Cc2ccccc2)cc1,-6
Cc1ccc(N(Cc2cc3cc(C)ccc3[nH]c2=O)C(=O)c2cccs2)cc1,17
CC(=O)c1ccc(NC(=O)C(C)N(C)CC(=O)Nc2cccc(F)c2)cc1 (stereo unspecified),-3
CCC(=O)NC(=S)Nc1ccc(OC)cc1OC,12
O=C(O)c1ccc(N/N=C/c2ccc(C(F)(F)F)cc2)cc1,10
C=CCNC(=S)NNC(=O)C(CCCC)CC(O)COCC(C)C (stereo unspecified),7
S=C(NCC1CCCO1)N1CCN(c2nc(-c3ccccc3)cs2)CC1 (stereo unspecified),22
Cc1ccc(Oc2cc(NC(=O)CCCn3nc(C)c([N+](=O)[O-])c3C)cc([N+](=O)[O-])c2)cc1,8
O=[N+]([O-])c1ccc(Cl)cc1Sc1cccc2cccnc12,17
Oc1ccc(/C=N/Nc2nc(-c3ccc(Cl)cc3)cc(C(F)(F)F)n2)cc1,15
CC(=O)n1cc([C@@H]2C=C(C(=O)NCc3ccccc3)O[C@H](OCCCCO)C2)c2ccccc21,12
CCOC(=O)C1(Cc2cccc(OC)c2)CCN(Cc2ccccc2)CC1,1
COc1ccccc1N1CCN(C(=O)CCC(=O)O)CC1,4
CCOC(=O)c1c(C)c(C)n(Cc2ccc(OC)c(OC)c2)c1C,12
COCC(=O)N1CCN(c2cccc(Cl)c2)CC1,11
O=C(NNc1ccccc1Br)C(=O)n1ccc2ccccc21,15
Cc1ccn2c(-c3csc(NCc4ccccc4)n3)c(C)nc2c1,-9
CCOC(=O)c1cn(CC#N)c2cc(F)c(F)cc2c1=O,5
Cc1ccc2cc(C)c3nnc(SCc4ccc(C(=O)O)cc4)n3c2c1C,12
Cc1ccc(S(=O)(=O)Nc2cc(-c3ccc(Cl)cc3)nn2C)cc1,19
Cc1ccc(Nc2nnc(-c3ccccc3N)o2)cc1C,7
COc1ccc(C2C(C(=O)Nc3ccccc3)=C(C)N=C3SCC(=O)N32)cc1 (stereo unspecified),8
COc1ccccc1NC(=S)NC(=O)/C=C/c1ccco1,15
CC(C)/C=C1\CCc2c([nH]c3ccccc23)C1=O,12
Cc1ccc(NC(=O)c2cc3cccc([N+](=O)[O-])c3[nH]2)cc1,9
# Carrying on:
SMILES,Biofilm kill mix
Cc1cc(C)cc(N2CC(C)(C)C2=O)c1,7
CCN(CC)S(=O)(=O)c1ccc2c(c1)N(CC(=O)NCc1ccco1)C(=O)CO2,1
CCN(CC)C(=O)COc1ccc(/C(C)=N/NC(=O)c2ccccc2O)cc1,-3
CSc1sc(C(=O)NN)c2c1C1(CCC2)SCCS1,42
COc1ccc(C[C@H]2CN3C(=NC[C@@H]3Cc3ccc(O)cc3)N2C[C@H](C)NC(=O)CCC2CCCCC2)cc1,18
CCOc1ncccc1C(=O)N1CCN(c2ccc(C(F)(F)F)cn2)CC1,12
O=C1CS/C(=N\N=C\c2ccccc2Cl)N1CC1CC1,15
CSc1nc2ccc(NC(=O)C3=NN(c4ccccc4)C(=O)CC3)cc2s1,16
Cc1c(S(=O)(=O)c2ccccn2)c(N)n(Cc2ccccc2)c1C,10
COc1ccc(CCNC(=O)c2ccc(CNS(=O)(=O)c3ccc(C(C)(C)C)cc3)cc2)cc1OC,21
CC(=O)c1ccc(OCc2cccc(C(F)(F)F)c2)cc1O,21
C/C(Cc1ccccc1)=N\NC(=O)CNC(=O)c1ccc(C(C)(C)C)cc1,16
Cc1ccc(CN(C)CC(=O)Nc2cccc([N+](=O)[O-])c2)o1,-11
Cc1nn(Cc2ccccc2Cl)c(C)c1NC(=O)c1nc2ncccn2n1,10
O=C(NNc1c2ccccc2nc2ccccc12)C12CC3CC(CC(C3)C1)C2,2
CCCCNC(=O)OCCSCCS(=O)(=O)c1ccc(Cl)cc1,19
CCCCOc1ccc(C(=O)N/N=C/c2ccc(OCCN3CCCCC3)c(OC)c2)cc1,13
COC(=O)Nc1ccc(S(=O)(=O)N2CCC(C(=O)N3CCCC(C)C3)CC2)cc1 (stereo unspecified),10
CN(Cc1cccc(-n2cccn2)c1)C(=O)CCc1nnc(C2CCCCC2)o1,16
COc1cc2nc(CCc3ccccc3)oc(=O)c2cc1OC,4
Cc1cc(NC(=O)c2ccc3c(c2)OCO3)ccc1NC(=O)c1ccco1,11
COC(=O)CSc1nc2sc3c(c2c(=O)[nH]1)CCC3,17
CN(C)S(=O)(=O)c1cccc(NC(=S)N/N=C/c2cc(Br)ccc2O)c1,4
CC(C)(C)c1ccc(C(=O)NNc2ncccc2-n2cccc2)cc1,20
CCOc1ccc(-n2c(C)c(C(C)=O)c3cc(OCC(N)=O)ccc32)cc1,24

# Part of the list above, with tabs:
compound	Biofilm kill mix
O=C(NNc1ccccc1Br)C(=O)n1ccc2ccccc21	15
Cc1ccn2c(-c3csc(NCc4ccccc4)n3)c(C)nc2c1	-9

# The list continues:
SMILES,Biofilm kill mix
COc1cc(/C=N/NC(=O)c2cc(C)oc2C)ccc1O,4
Cc1ccc(CSc2ccc(-c3ccc4c(c3)OCO4)nn2)cc1,9
Cc1cc2ncc(C(=O)N=CN(C)C)cn2n1,17
O=C(NC(=S)NCC1COc2ccccc2O1)c1ccccc1 (stereo unspecified),15
CCCCNCCOCCOc1ccc(C)cc1Br,15
O=C1/C(=C/c2ccncc2)CCc2ccccc21,16
O=C1CC(c2ccc(Cl)cc2)SC(N(c2ccccc2)c2ccccc2)=N1 (stereo unspecified),13
N/C(=N\N=C\c1ccc([N+](=O)[O-])cc1)c1nonc1N,13
Cc1cc(C)nc(NC(=O)c2cc([N+](=O)[O-])cc([N+](=O)[O-])c2)n1,12
O=[N+]([O-])c1ccccc1N/N=C/c1ccc2c(c1)OCO2,-9
Cc1ccc(N2C(=O)c3cccc4c(Oc5ccccc5[N+](=O)[O-])ccc(c34)C2=O)c(C)c1,-9
COc1ccc(NC(=O)Nc2nnc(N3CCCCC3C)s2)cc1OC (stereo unspecified),18
CCN(CC)CC(=O)Nc1ccccc1SCC(=O)Nc1ccsc1C(=O)OC,8
CC(/C=N/NC(=O)c1ccncc1)=C\c1ccco1,13
O=C(COC(=O)COc1ccccc1)Nc1ccc(S(=O)(=O)N2CCOCC2)cc1,8
Cc1ccc(NC(=O)c2nnn(-c3cccc(C(F)(F)F)c3)c2N)cc1,10
COc1ccc(NC(=O)/C(C#N)=C\C=C\c2ccco2)cc1,8
Cn1cc(P(=S)(N2CCOCC2)N2CCOCC2)cc1P(=O)(N1CCOCC1)N1CCOCC1,20
CC1CCCC(NC(=O)CCNS(=O)(=O)c2ccc(Br)cc2)C1C (stereo unspecified),17
COc1ccccc1C(=O)C1CCCN(C(=O)c2cccnc2SC)C1 (stereo unspecified),24
COc1ccc(C(CC(=O)c2ccccc2)CC(=O)c2ccccc2)cc1,14
CCOc1ccc(-c2cc(CCCC(=O)NCCC(C)C)no2)cc1,8
C=C(C)C1CC=C(C)/C(=N/NC(=O)COc2ccc(C)cc2)C1 (stereo unspecified),3
Cc1ccc(C(C(=O)NC2CCCC2)N(C(=O)CCC(=O)Nc2cc(C)on2)c2ccccc2)cc1 (stereo unspecified),13
O=C(CCc1ccccc1)N/N=C/c1cccc([N+](=O)[O-])c1,-1

# Laid out differently: entries from further up
Cc1ccc(CSc2ccc(-c3ccc4c(c3)OCO4)nn2)cc1
  Biofilm kill mix: 9
Cc1cc2ncc(C(=O)N=CN(C)C)cn2n1
  Biofilm kill mix: 17
O=C(NC(=S)NCC1COc2ccccc2O1)c1ccccc1 (stereo unspecified)
  Biofilm kill mix: 15

# (listing goes on)
SMILES,Biofilm kill mix
O=C(NCc1cccc(F)c1)c1ccc(N2C(=O)Cn3c(cc4sccc43)C2=O)cc1,9
Cn1ncc(SCc2ccccc2)c(Cl)c1=O,17
CCc1ccccc1NC(=O)Nc1ccc(F)cc1,7
Cc1cnc(SCc2ccc(Cl)cc2Cl)[nH]c1=O,18
OC(c1ccccn1)C1CCN(Cc2nc(C(c3ccccc3)c3ccccc3)no2)CC1 (stereo unspecified),-4
Cc1ccc(NS(=O)(=O)c2ccc(OCC(=O)NCC3CCCO3)cc2)cc1 (stereo unspecified),5
CC1CCCc2sc3ncn(N)c(=N)c3c21 (stereo unspecified),13
COC(=O)CCCC1=CC2=CC(=O)C(C)(OC(=O)c3cccs3)C(=O)C2=CN1C1CCCC1 (stereo unspecified),24
CC(=O)OCC(OC(C)=O)C(OC(C)=O)C(OC(C)=O)C(=O)Nc1cccc(C)c1 (stereo unspecified),-5
CC(=O)Nc1nonc1C(=O)N1CCC(C)CC1,9
Fc1ccc(-c2nc(-c3cccs3)[nH]c2-c2ccc(F)cc2)cc1,12
O=C(Cn1cc(C(=O)C2CC2)c2ccccc21)NCc1ccccc1,17
N#C/C(=C(/O)COC(=O)c1cccnc1Cl)c1nc2ccccc2[nH]1,6
Nc1ccc(Cl)c[n+]1Cc1cccc2cccnc12,5
Cc1oc2cc(OC(=O)c3ccco3)ccc2c(=O)c1-c1nc2ccccc2n1C,18
O=[N+]([O-])c1ccccc1/C=C/C=N/Nc1nc(N2CCCCC2)nc(N2CCCCC2)n1,6
COC(=O)c1ccc(NC(=S)NNC(=O)c2ccccc2)cc1,60
S=C(NCCc1c[nH]c2ccccc12)NC1CC1,7
O=C(O)Cc1ccc(NC(=O)c2cccc(NC(=O)c3ccco3)c2)cc1,4
CC1(C)CCSC(/C=C/c2ccccc2)=N1,17
Cc1ccc(-c2cn(-c3ccc(OC(F)F)cc3)c3[n+]2CCCCC3)cc1,20
CCN(CC)S(=O)(=O)c1cnccc1N1CCN(c2cccc(Cl)c2)CC1,9
O=C(NCCO)C(=O)c1c(-c2ccccc2)cc2ccccn12,16
CCN1CCN(c2ccc(N=Cc3ccccc3O)cc2)CC1,7
CC(C)(CO)NCC(=O)Nc1cc(C(F)(F)F)cc(NC(=O)CNC(C)(C)CO)c1Cl,10

# The closing 5 compounds of the section before come first, to join the parts:
SMILES,Biofilm kill mix
Cc1ccc(-c2cn(-c3ccc(OC(F)F)cc3)c3[n+]2CCCCC3)cc1,20
CCN(CC)S(=O)(=O)c1cnccc1N1CCN(c2cccc(Cl)c2)CC1,9
O=C(NCCO)C(=O)c1c(-c2ccccc2)cc2ccccn12,16
CCN1CCN(c2ccc(N=Cc3ccccc3O)cc2)CC1,7
CC(C)(CO)NCC(=O)Nc1cc(C(F)(F)F)cc(NC(=O)CNC(C)(C)CO)c1Cl,10
CCN(CC)S(=O)(=O)c1ccc(Cl)c(C(=O)OCC(=O)c2c(N)n(C)c(=O)n(C)c2=O)c1,12
CCOC(=O)CNC(=O)CSc1ccc2nnc(-c3cccnc3)n2n1,-2
COc1ccc(CCN(C)C(=O)CCc2nnc(-c3ccccc3)o2)cc1OC,6
CCOc1cccc(CNc2ccc(O)cc2)c1OCc1ccccc1Cl,7
Cc1ccc2nc(-c3ccc4c(c3)NC(=O)CO4)cn2c1,7
Cc1ccc(NC(=O)CN2C(=O)S/C(=C/c3ccc(-c4cccc(C(=O)O)c4)o3)C2=O)cc1,18
CC1CN(C2=CC(=O)CCC2)CC(C)O1 (stereo unspecified),1

# The list is partial, so the mix of outcomes need not match the whole.
